ugtP null kill – growth inhibition of S. aureus ugtP deletion strain; S. aureus RN4220 ugtP deletion, OD600 growth, 16 h; some inactives read as strong as hits; growth inhibition, % (test concentration not listed); 0.54% of 330,000 active;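 active = z-score under -3 and OD600 up to 0.15 on both plates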;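 note: plate controls were untreated wells for no effect and antibiotic for full effect; wells of about 80 µL received 100 nL stock; the first replicate is given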
Autofluor counter – compound fluorescence in toxin protease inhibitor counterscreen | fluorescence intensity (no concentration beside the values) | 3.1% of 360,000 active | compound autofluorescence counterscreen, microsphere flow cytometry; stronger effect = higher value | AID 624483;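 active = at least 3 SD above the mean of all compounds, about 16000 in these data; inconclusive = too few beads counted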;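 note: 100 nL of 1 mM stock went into each well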
BJeLR viability – BJeLR cell viability loss | BJeLR (HRASV12) viability, CellTiter-Glo ATP luminescence, 48 h; reference of the scale not given here | inhibition, % (concentration not given with the values) | 0.17% of 300,000 active | AID 1554;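 active = replicate mean above 50%; inconclusive = above 50% but judged a plate artefact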;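 note: 50 nL library stock added to about 25 µL; numbers are from one replicate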
Mtb hypoxia inh – Mtb hypoxia fluorescent reporter inhibition | M. tuberculosis hypoxia-regulated fluorescent reporter, fluorescence | fluorescence inhibition, % (no concentration beside the values) | 0.1% of 300,000 active;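 active = 35 to 45% if threefold the growth effect, above 45% if 1.5-fold the growth effect; inactive = the rest, general growth blockers included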;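 note: wells of about 50 µL received 100 nL stock; 0% = vehicle wells and 100% = reference inhibitor wells; whole bacteria with a GFP reporter of the hypoxia response; strong numbers were not always called active; many hits fall short of the cut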
PrP 5UTR inh – inhibition of PrP 5' UTR reporter expression | inhibition, % (test concentration not listed) | cell-based PrP 5' UTR mRNA reporter, plate reader | 0.35% of 340,000 active;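 active = every replicate at 50% or more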;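 note: 0 = median of the neutral control wells; tested in H4 reporter cells; numbers are from one replicate; inactives centre near -14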
RN4220 kill – kills Staphylococcus aureus RN4220; S. aureus RN4220 growth, OD600, 16 h; inhibition, % (concentration not given with the values); 0.33% of 330,000 active; AID 1259311;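 active = z-score of -3 or lower and OD600 up to 0.18 on both plates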;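 note: plate controls were untreated cells for no effect and reference antibiotic for full effect; stock transfer was 100 nL into about 80 µL; one replicate is shown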
Mtb hypoxia inh growth – second read-out of Mtb hypoxia inh, no call of its own (marks repeat the call); growth inhibition, %; measured here: M. tuberculosis growth (absorbance);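 0% = vehicle and 100% = reference antibiotic; read after six days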
Numbers without * were called inactive; ? = inconclusive; nt = not tested or not shown.

Molecule	RN4220 kill	Mtb hypoxia inh growth	ugtP null kill	Mtb hypoxia inh	BJeLR viability	Autofluor counter	PrP 5UTR inh
Cc1ccc(CNC(=O)C2CCCN(c3cnccn3)C2)cc1 (stereo not given)	3.5	7	4	2	8	5558	3
COc1ncccc1-c1nnn(-c2ccc(Cl)nc2)n1	9.3	2	4	5	-6	4056	-2
Cc1ccc(C(=O)NCCCCNC(=O)c2ccc(C)o2)o1	5.2	9	-1	5	-7	2957	-14
O=C(c1cn(Cc2ccccc2)c2ccccc12)C1CC1	6.1	11	1	14	17	4032	-44
Cc1cccc(N2CCN(C(=O)NC3CCCCC3)CC2)c1C	1.7	3	8	17	-4	4283	-15
C=CCn1c(=O)c2ccccc2n2c(SCC(=O)NCCc3ccccc3)nnc12	3.7	8	7	1	-6	3720	-19
CCOC(=O)c1cc(NC(=O)N(CC)C2CCCCC2)c(C)nc1C	0.7	4	-2	4	7	9852	-11
CC(Sc1nnnn1C1CC1)C(=O)N1c2ccccc2NC(=O)C1(C)C (stereo not given)	-0.3	7	-1	-7	nt	8890	-11
CN1CCC(C(=O)N2CCCC(C(=O)c3ccc4c5c(cccc35)CC4)C2)CC1 (stereo not given)	-0.1	11	0	15	7	2405	0
CCc1ccc(/C=C(\C)C(=O)c2c(C)cc(C)[nH]c2=O)cc1	-0.6	2	14	2	-9	4480	0
O=C(/C=C/c1cccs1)NC(=S)Nc1ccc(S(=O)(=O)Nc2ccccc2C(F)(F)F)cc1	0.5	1	82	5	-1	4481	-17
CC(NC(=O)c1ccc(Cn2cc([N+](=O)[O-])cn2)o1)c1ccccc1 (stereo not given)	1.6	-4	11	0	-11	2815	6
O=C(COc1ccc(F)cc1Br)NCC1(N2CCOCC2)CCCCC1	-1.2	5	-3	2	nt	2822	-35
Cc1ccc(NC(=O)Nc2ccc3c(c2)OCO3)c(OC(F)F)c1	-0.3	3	-1	12	6	4822	-68
Cc1ccccc1OCC(=O)NC(=S)Nc1ccc(Br)c(C)n1	9.7	6	12	7	4	7853	-15
COc1ccc(CC(=O)NNC(=O)c2cccs2)cc1OC	1.4	3	6	-13	-2	2105	-9
O=C(c1ccco1)N1CCN(C(=O)C2CC(=O)N(c3ccc(Cl)cc3)C2)CC1 (stereo not given)	-0.9	-5	2	-5	5	3538	-14
CCCc1c(C(=O)NN=Cc2ccc(C)s2)nnn1-c1nonc1N	3.1	3	10	10	nt	nt	nt
CCN1C(=O)C(Cc2nc3ccccc3c(=O)n2-c2ccccc2)c2ccccc21 (stereo not given)	11	2	-4	-3	6	19070*	-9
CCSc1nnc(CNC(=O)C23CC4CC(CC(C4)C2)C3)n1Cc1ccccc1	9.2	7	-4	5	10	2160	-11
CC(CC(=O)Nc1cccc2c1CCCC2)=NNC(=O)c1cccc2ccccc12	7.1	11	0	12	nt	nt	nt
COc1ccc(OC)c(S(=O)(=O)Nc2cc3c4c(c2)CCN4C(=O)CC3)c1	4.4	5	5	-8	-1	?	-19
O=C(NNS(=O)(=O)c1ccccc1)c1csc(-c2cccnc2)n1	5.0	5	13	15	7	5569	-4
Cn1c(=O)c2[nH]c(CCCC(=O)O)nc2n(Cc2ccccc2)c1=S	7.3	-6	3	4	-2	3814	-22
O=[N+]([O-])c1cccc(C=NNS(=O)(=O)c2ccccc2)c1	25	9	-6	1	nt	nt	nt
Cc1ccc(-n2c(-c3cn(C)nc3C)n[nH]c2=S)cc1	3.6	10	3	2	4	nt	nt
COc1ccccc1CN1CCN(C(=O)c2ccco2)CC1	6.2	-2	3	8	-14	2864	-3
O=c1[nH]c(=O)n(-c2cccc3ccccc23)c(O)c1/C=N/N1CCCCC1c1cccnc1 (stereo not given)	nt	nt	nt	nt	4	2129	-2
CC(=O)Nc1ccccc1Nc1nc(NCCO)nc(N2CCCC2)n1	-1.6	1	-5	4	-6	3951	-6
COCCNC(=O)C(c1ccc(F)cc1)N(C(=O)CCC(=O)Nc1nccs1)c1cccc(C)c1 (stereo not given)	-8.7	4	8	13	nt	4219	-13
Cc1occc1-c1nnc(SCC(=O)N2CCN(c3ccccc3)CC2)n1C	5.7	3	5	15	-4	5000	-15
Cc1cccc(NC(=O)CN(C)S(=O)(=O)c2ccc(Br)cc2)n1	-2.7	10	-10	-10	0	17225*	-18
COc1ccc(C(=O)CC(=O)C(=O)Nc2c(C)cccc2C)cc1	7.8	1	-3	16	4	3368	3
CC1Cn2c(nnc2-c2ccc(F)cc2)S1 (stereo not given)	8.8	nt	7	nt	-1	4389	-8
Cc1cc(OCC(=O)NCCCN2CCOCC2)c2c(C)c(C)c(=O)oc2c1	-0.2	3	5	10	7	4670	-22
O=C(CSc1nc2[nH]c(=O)[nH]c(=O)c2s1)Nc1cccc(F)c1	5.3	2	1	7	nt	4047	-15
CCn1c(SCC(=O)NNC(=O)c2ccc(OC)cc2)nnc1-c1cccnc1	8.8	0	5	3	-1	3200	-17
C/C(CC(=O)NCCCN1CCOCC1)=N\NC(=O)COc1ccc(Cl)cc1	nt	nt	nt	nt	-2	4701	-3
COc1cccc(NC(=O)N2CCN(c3cccc(C)c3C)CC2)c1	0.3	10	-1	9	-3	9116	-41
Cc1ccc2nc(NC(=O)C3CC(=O)N(Cc4ccco4)C3)sc2c1 (stereo not given)	8.3	-2	9	11	-9	2000	-33
COc1ccc(C(c2c(C)n(C)n(-c3ccccc3)c2=O)c2c(C)n(C)n(-c3ccccc3)c2=O)cc1	0.4	18	7	8	-11	3586	1
CC(=NNC(=O)CSCc1ccc(Cl)cc1)c1cccc(NC(=O)c2ccccc2)c1	-9.7	3	-5	15	nt	nt	nt
CS(=O)(=O)c1ccc2nc(NC(=O)c3cccc(NS(=O)(=O)c4ccc(F)c(F)c4)c3)sc2c1	19	-2	-6	-4	6	2688	0
CCC(CC)C(=O)Nc1cc([N+](=O)[O-])ccc1Cl	0.8	-4	-2	12	8	2199	-10
COc1ccc2cc(C(=O)N(C)CC(=O)Nc3ccccc3Br)ccc2c1	5.8	nt	8	nt	nt	2865	-53
Cc1c(NC=C(C#N)C#N)c(=O)n(-c2ccccc2)n1C	4.4	2	-3	6	2	5623	-6
CCOc1ccc(S(=O)(=O)N2CCCC(C(=O)NCC3CCCO3)C2)cc1Cl (stereo not given)	0.5	0	-1	-3	3	?	12
Cc1nn2c(-c3cccnc3)ccnc2c1-c1ccccc1	5.6	6	-2	13	4	2442	-18
COC(=O)c1nn(-c2ccc(C)cc2)ccc1=O	3.2	12	2	11	1	4267	-13
COc1cc2sc(-c3ccccc3OC)c(-c3ccc(OCCN4CCOCC4)cc3)c2cc1OC	-1.5	4	8	-2	nt	4142	-17

Continued.
Molecule	RN4220 kill	Mtb hypoxia inh growth	ugtP null kill	Mtb hypoxia inh	BJeLR viability	Autofluor counter	PrP 5UTR inh
O=C(Nc1cc(S(=O)(=O)N2CCOCC2)ccc1Oc1ccc(F)cc1)C1=COCCO1	-2.5	4	-6	1	1	6222	-9
CCc1cc2ccc(C)cc2nc1SCC(=O)NC1CCCC1	-5.1	-7	2	-5	5	3447	-7
O=C(O)CSCC(=O)Nc1cc(C(F)(F)F)ccc1Cl	1.2	-9	2	-6	2	7773	-20
O=C1NC(=O)/C(=C\c2ccc(OCc3ccccc3)cc2)S1	-4.9	12	7	6	-5	3860	-17
CC(Nc1nc(-c2ccncc2)nc2ccccc12)c1ccccc1 (stereo not given)	-9.5	5	-20	4	-1	4767	-17
Cc1ccc(C(=O)N2CCCC(CCC(=O)N3CCN(c4ccccn4)CC3)C2)cn1 (stereo not given)	-0.9	0	0	2	4	5410	-19
COc1cc(OC)cc(N(C(=O)c2snc(C(N)=O)c2N)C(C(=O)NCC2CCCO2)c2ccc(C)o2)c1 (stereo not given)	nt	nt	nt	nt	-6	4558	-27
CC1(C)CC(=O)C2=C(C1)OC(N)=C(C#N)C2c1ccccc1OC(=O)N1CCOCC1 (stereo not given)	6.5	8	4	7	-2	9444	-40
Cc1c(OC(C)C(=O)O)ccc2c(-c3ccccc3)cc(=O)oc12 (stereo not given)	3.3	-5	4	11	9	3539	-9
Cc1ccc(C(O)c2nccn2C)o1 (stereo not given)	1.1	12	3	3	-3	6012	9
COc1ccc(C(=O)C=CNNC(=O)c2ccc(Cl)cc2)cc1	nt	nt	nt	nt	3	3566	-15
CCOC(=O)CSc1nc2ccc(NC(=O)CSc3nnnn3Cc3ccccc3)cc2s1	1.9	2	-2	0	2	20885*	-1
C=CCn1c(SCC(=O)N2CCN(c3ccccc3)CC2)nc2c([nH]c3ccccc32)c1=O	5.1	7	2	3	-1	6001	-5
CCCC(=O)Nc1cc(OC)c(C(=O)OC)cc1Cl	1.9	9	10	1	0	4403	-15
COc1cccc(NC(=O)c2ocnc2C)c1	7.6	7	-4	12	-4	10505	-29
O=C(CCc1nc2ccccc2[nH]1)Nc1ccc(F)cc1	1.2	8	-7	5	5	11072	-9
Cc1ccc2nsnc2c1S(=O)(=O)N1CCN(C(=O)C2CCCO2)CC1 (stereo not given)	1.9	nt	5	nt	-12	4481	5
CC(C)C(=O)NCCc1nc2ccccc2n1CCc1ccccc1	0.2	9	-2	-2	-6	2561	-15
COc1ccc(OC)c2[nH]c(=O)c(CCNC(=O)C(C)C)cc12	6.1	9	6	11	9	5956	-5
CC1(C(=O)N(CC(=O)NC2CCCC2)Cc2ccccc2)CC(=O)N=C2C=CC=CN21 (stereo not given)	-1.6	4	-1	-13	-3	5950	-35
O=S(=O)(Nc1cccc(-c2ccc(N3CCCCCC3)nn2)c1)c1ccccc1Cl	12	1	-3	6	-1	5421	-30
O=C1CCc2cc(NS(=O)(=O)c3ccc([N+](=O)[O-])cc3)cc3c2N1CCC3	31	-7	12	-10	-2	6002	-19
CC(CSc1ccc(Br)cc1)CN1CCC(C(C)(C)C)CCC1=O (stereo not given)	0.0	9	-16	10	nt	nt	nt
O=C(/C=C/c1ccco1)OCc1nnc(-c2ccc(Cl)cc2)o1	4.1	7	-1	-3	1	4174	-15
O=C(NNc1ccccc1[N+](=O)[O-])Nc1ccccc1	2.2	6	-3	3	4	20435*	3
CCCCN(C(=O)c1ccc(S(=O)(=O)N(C)C)cc1)c1nc2ccccc2s1	2.2	9	-1	-5	-10	2471	-9
CCOC(=O)NC(=O)CSc1ccccn1	2.6	5	-2	6	7	8086	-20
Cc1ccc(CNC(=O)c2ccc(Cl)c(S(N)(=O)=O)c2)n1C	1.9	5	9	12	-1	3794	-21
Cc1cc(NC(=O)CSc2nc(C(C)C)nc3sc4c(c23)CCCC4)no1	5.6	27	-10	4	-5	6210	-15
O=C(NCC(=O)c1ccccc1)OCc1ccc([N+](=O)[O-])cc1	4.6	8	4	-11	-4	3971	-35
O=C(NCc1ccc(F)c(F)c1)C1CCC(=O)N(CC2CCCCC2)C1 (stereo not given)	4.0	-4	13	0	2	4692	-24
CC(C)NC(=O)Nc1ccc2c(c1)C(=O)N([C@H](C)CO)C[C@H](C)[C@@H](CN(C)C(=O)Nc1ccccc1)O2	-12	12	-1	2	nt	3593	-22
O=C(CSCc1ccc(F)cc1)N1CCN(c2ccc(F)cc2)CC1	3.3	10	-3	6	3	10897	-31
NS(=O)(=O)c1ccc(NC(=O)CN2CCN(S(=O)(=O)c3cccs3)CC2)cc1	4.4	1	2	4	nt	6249	-2

Four structures already listed, sorted by SMILES length, rising:
Molecule	RN4220 kill	Mtb hypoxia inh growth	ugtP null kill	Mtb hypoxia inh	BJeLR viability	Autofluor counter	PrP 5UTR inh
O=C(CCc1nc2ccccc2[nH]1)Nc1ccc(F)cc1	1.2	8	-7	5	5	11072	-9
COc1cccc(NC(=O)N2CCN(c3cccc(C)c3C)CC2)c1	0.3	10	-1	9	-3	9116	-41
NS(=O)(=O)c1ccc(NC(=O)CN2CCN(S(=O)(=O)c3cccs3)CC2)cc1	4.4	1	2	4	nt	6249	-2
C=CCn1c(SCC(=O)N2CCN(c3ccccc3)CC2)nc2c([nH]c3ccccc32)c1=O	5.1	7	2	3	-1	6001	-5
